Screening data: PubChem BioAssay, several laboratories
PKD1 inh – blocks activity of human protein kinase D1. Q15139. PKD1 kinase fluorescence polarization assay. inhibition, %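 (about 10 µM by stock and volumes)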. 0.056% of 200,000 active;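 active = inhibition of 50% or more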;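 also: controls were vehicle for no effect and a reference inhibitor for full effect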
Insulin prom inh – TRM-6 insulin promoter activity inhibition. TRM-6 cells (human fetal islet line), insulin promoter-eGFP reporter, imaging; reporter expression induced with tamoxifen. inhibition, % at 2 µM. 0.9% of 130,000 active. AID 1273;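 active = inhibition above the mean plus 3 SD, with well images judged a real hit on visual review, cut at about 60% in these data, passing the limit was not always enough; inconclusive = inhibition over the cutoff but images rejected on review; inactive = inhibition not above the cutoff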
HSV replic up – increases HSV replication in cells; HSV replication augmentation in cells, fold increase; maximum fold increase; 0.005% of 220,000 active; AID 1956;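 active = peak rise of 1.5-fold or more in the series; inconclusive = self-fluorescent or not available for retest; tested in PC3 cells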;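 also: first round at 10 µM; read as green reporter fluorescence; hits show the peak of a series up to 25 µM; 1 = signal of infected wells without compound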
GALR2 ag – GALR2 (human) receptor agonism. O43603. GALR2-expressing cells, agonist activation read-out. activation, %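 (tested at 5 µM)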. 0.48% of 140,000 active;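 active = above mean plus 3 SD of all compounds, about 5% in these data, not always enough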;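 also: 0% = vehicle buffer wells and 100% = reference agonist at full effect; tested in CHO reporter cells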
Target sequence (O43603 whole entry, looked up): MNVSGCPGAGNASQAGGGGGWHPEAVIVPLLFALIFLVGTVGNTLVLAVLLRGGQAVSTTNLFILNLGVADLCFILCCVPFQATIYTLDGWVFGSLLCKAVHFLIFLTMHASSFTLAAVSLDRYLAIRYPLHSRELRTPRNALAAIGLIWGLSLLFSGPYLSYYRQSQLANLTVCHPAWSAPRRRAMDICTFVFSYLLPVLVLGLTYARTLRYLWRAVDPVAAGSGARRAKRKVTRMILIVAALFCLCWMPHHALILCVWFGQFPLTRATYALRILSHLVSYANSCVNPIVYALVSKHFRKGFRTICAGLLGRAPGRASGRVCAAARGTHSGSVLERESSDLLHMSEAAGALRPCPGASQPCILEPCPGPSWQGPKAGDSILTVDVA
RGS16-Gao HTS – RGS16-Galphao interaction regulator (human); bead-based flow cytometry RGS16-Galphao binding, fluorescence; actives lie on both sides; AID 1441; O15492+P09471; binding response (% of control), % at 10 µM; 0.38% of 220,000 active;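 active = below 25% or above 175%, edge rows of some plates excepted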;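 also: Galphao activated by GDP with aluminum fluoride before binding; 100% = wells without compound and 0% = beads without RGS; some results beyond the cut were filed as inactive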
Target sequence (O15492 whole entry, looked up): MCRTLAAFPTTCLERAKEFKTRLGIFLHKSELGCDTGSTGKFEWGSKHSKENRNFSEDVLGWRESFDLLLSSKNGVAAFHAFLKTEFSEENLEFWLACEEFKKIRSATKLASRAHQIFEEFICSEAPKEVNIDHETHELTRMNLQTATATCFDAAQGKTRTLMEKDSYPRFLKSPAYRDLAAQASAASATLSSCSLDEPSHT
Target sequence (P09471 whole entry, looked up): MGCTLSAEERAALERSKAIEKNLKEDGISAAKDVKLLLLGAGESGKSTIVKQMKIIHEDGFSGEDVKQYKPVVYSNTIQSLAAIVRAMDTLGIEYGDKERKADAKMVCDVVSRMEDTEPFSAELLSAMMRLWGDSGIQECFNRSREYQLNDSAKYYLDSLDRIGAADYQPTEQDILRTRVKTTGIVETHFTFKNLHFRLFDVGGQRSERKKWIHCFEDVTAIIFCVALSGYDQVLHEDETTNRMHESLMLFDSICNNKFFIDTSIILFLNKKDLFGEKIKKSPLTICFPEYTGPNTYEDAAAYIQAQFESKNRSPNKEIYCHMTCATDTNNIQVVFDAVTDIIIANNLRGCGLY
Insulin prom inh cell count – second read-out of Insulin prom inh, no call of its own (marks repeat the call); normalized cell count, %; measured here: cell count, toxicity; reference of the scale not given here;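 cells exposed to compound for 48 h; stained nuclei by imaging scaled within each plate; lower means fewer cells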
HSV replic up primary fold – recorded beside HSV replic up, whose call it bears; fold increase; compound at 10 µM; measured here: primary screen fold increase 10 uM; tested in PC3 cells;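 GFP signal in the first replicate; 1 = infected wells without compound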
* = called active by the depositor; i = inactive; ? = inconclusive; · = not tested or not shown.

smiles	PKD1 inh	Insulin prom inh	Insulin prom inh cell count	HSV replic up	HSV replic up primary fold	GALR2 ag	RGS16-Gao HTS
O=C(NNS(=O)(=O)c1ccccc1)C(O)(c1ccccc1)c1ccccc1	4	-31	68	i	1.1	-0.9	109
CCOc1ccc(-n2c(SCC(=O)Nc3ccc(CC)cc3)nc3n[nH]c(C)c3c2=N)cc1	-5	-50	146	i	0.59	·	108
CC(/C=C/c1ccccc1)=N/NC(=O)CNC(=O)c1ccccc1F	-1	33	77	i	0.96	·	102
O=c1c(-c2ccc(O)cc2O)coc2cc(O)cc(O)c12	11	·	·	i	0.71	·	100
CCOCCCn1c(SCC(=O)Nc2cccc(S(=O)(=O)NC3=NCCCCC3)c2)nc2ccccc2c1=O	·	·	·	i	1.1	·	102
CCOC(=O)Cn1c(=O)oc2cc(S(=O)(=O)N(C)c3ccc(OC)cc3)ccc21	·	·	·	i	0.92	·	104
O=c1[nH]c(SCc2ccccc2Cl)nc2c1cnn2-c1ccccc1	-2	·	·	i	1	2.4	102
Cc1ccc(NC(=O)c2ccc([N+](=O)[O-])o2)cc1C	2	·	·	i	0.7	·	106
CC1=C(C(=O)N2CCOCC2)C(c2cc(C)ccc2C)NC(=S)N1 (stereo unspecified)	-2	-20	58	i	1	·	105
COc1ccc(NC(=O)C(F)(OC)C(F)(F)F)c(OC)c1 (stereo unspecified)	-3	·	·	i	0.86	-0.6	105
C=CCCCN(Cc1ccccc1)S(=O)(=O)c1ccccc1Br	·	·	·	i	1	·	100
c1ccc(Nc2c3c(nc4ccccc24)CCC3)cc1	5	·	·	i	1	·	98
O=C(Nc1ccncc1)c1ccc(C(=O)Nc2ccncc2)cc1	-6	58	64	i	0.95	·	36
CCN(CC)c1ccc(/C=N/NC(=O)c2cccc(S(=O)(=O)N3CCOCC3)c2)c(O)c1	3	·	·	?	·	·	71
CN1C=CC=C/C1=C1/SC(=S)N(Cc2ccccc2)C1=O	5	27	70	i	0.94	-1.2	102
O=C1NCCN1Cc1cccc(Cl)c1	8	·	·	i	1.2	-3.3	112
C=CCOC(=O)C1=C[C@H](c2cn(C(C)=O)c3ccccc23)C[C@H](OCCCCO)O1	12	·	·	i	0.93	·	100
CCNC(=O)NC(=O)COC(=O)CCCSc1nc2ccccc2s1	14	-23	144	i	1.3	-0.2	110
COCCN(CC(=O)Nc1cccc(C)c1)S(=O)(=O)c1ccc(S(=O)(=O)N2CCCC2)cc1	-3	-6	54	i	0.82	-2.5	100
O=C(CSc1nnc(NC(=O)C2CC2)s1)NCc1ccco1	-11	26	93	i	0.98	0.0	30
Cc1ccc2c(c1)C(=O)C(=O)N2CC(=O)Nc1ccccc1NC(=O)c1ccccn1	·	·	·	i	0.86	·	95
COC(=O)CSC(C(=O)Nc1ccc(C)c(C)c1)c1ccccc1 (stereo unspecified)	3	·	·	i	0.75	-1.5	91
N#Cc1c(NC(=O)c2ccc(Cn3cc(Br)cn3)o2)sc2c1CCCCCC2	1	-19	115	i	0.92	-1.1	96
COc1ccc(-c2cc(C(=O)Nc3c(C)n(C)n(-c4ccccc4)c3=O)no2)cc1	-9	-11	126	i	0.98	·	98
CC(=O)Nc1nc(SCc2cccc3ccccc23)n[nH]1	11	29	104	i	0.9	-2.6	109
Nc1nnc(CCOc2ccc(Cl)cc2)s1	-2	-469	71	i	0.98	-0.5	113
N/C(=N\NC(=O)c1cccs1)c1cc2cc(Cl)ccc2oc1=O	·	·	·	i	0.98	·	96
CCn1c(=S)[nH]c2cc(C(=O)O)ccc21	-2	0	129	i	1	·	90
CC(C)CNc1nc(Oc2ccc(=O)[nH]n2)nc(N2CCOCC2)n1	-4	·	·	i	0.92	·	102
COC(=O)Cn1cc([N+](=O)[O-])nc1C	-6	-100	69	i	0.93	·	89

Profiles as entered above. Order of values: PKD1 inh | Insulin prom inh | Insulin prom inh cell count | HSV replic up | HSV replic up primary fold | GALR2 ag | RGS16-Gao HTS
C=CCOC(=O)C1=C[C@H](c2cn(C(C)=O)c3ccccc23)C[C@H](OCCCCO)O1 in the list: 12 | · | · | i | 0.93 | · | 100
CC(=O)Nc1nc(SCc2cccc3ccccc23)n[nH]1 in the list: 11 | 29 | 104 | i | 0.9 | -2.6 | 109

Other structures follow:
smiles	PKD1 inh	Insulin prom inh	Insulin prom inh cell count	HSV replic up	HSV replic up primary fold	GALR2 ag	RGS16-Gao HTS
Cc1cc(NC(=O)CSc2nc(C3CC3)nc3sc(C)c(C)c23)no1	1	-21	67	i	0.64	-0.3	99
CC(C)CC(NC(=O)C1CCCCC1)C(=O)N1CCN(c2ccccn2)CC1 (stereo unspecified)	-5	-31	85	i	0.73	-0.4	96
COc1cc(O)c(C(CCN2CCCC(C)C2)c2ccc3c(c2)OCO3)c(OC)c1 (stereo unspecified)	·	·	·	i	0.92	·	94
CCOc1ccc(OCCN2CCCCC2)cc1	4	62*	86*	·	·	-1.8	99
CC1Cc2ccccc2N1C(=O)CSc1nc2ccccc2s1 (stereo unspecified)	-7	·	·	·	·	-0.2	92
CCn1c2ccccc2c2cc(NC(=O)COC(=O)c3ccccc3F)ccc21	6	·	·	i	0.65	0.2	91
CCOC(=O)c1c(C)[nH]c(C)c1C(=O)CSc1nnc(-c2ccncc2)n1Cc1ccccc1	11	-59	67	i	0.93	-0.9	118
Cc1nc(CS(=O)(=O)c2ccc(Cl)cc2)cc(N2CCOCC2)n1	6	-21	156	i	0.89	-1.7	103
Cc1nc(SCc2ccc(C(=O)O)cc2)c2c(C)c(C)sc2n1	·	·	·	i	0.97	·	97
Cc1ccc(C)c(N2CCN(S(=O)(=O)c3ccc4c(c3)CCN4C(=O)CCC(=O)O)CC2)c1	4	·	·	i	0.87	-2.2	99
Cc1nonc1OCCn1c([N+](=O)[O-])cnc1C	-2	·	·	i	1	·	85
COc1ccc(S(=O)(=O)Nc2ccc(NC(C)=O)cc2)cc1[N+](=O)[O-]	5	0	88	i	0.97	·	96
CC(C)N1C(=O)CC(Nc2ccc(N3CCOCC3)cc2)C1=O (stereo unspecified)	-2	-23	106	i	0.92	-1.5	69
Cc1ccc2nc(SCC(=O)Nc3ccc(C)c([N+](=O)[O-])c3)[nH]c2c1	-2	·	·	i	0.98	-1.6	18
COc1ccc(/C=C2/C(=O)N=C3SCCN32)cc1	2	-3	48	i	1.1	-0.5	102
COCCNC(=O)/C(C#N)=C/c1ccc(OCC(=O)NC2CCCCC2)cc1	-2	-129	86	i	1	·	107
COc1cc(/C=c2\s/c(=C\C(=O)C(C)(C)C)[nH]c2=O)cc(OC)c1OC	0	·	·	i	1.2	·	104
Cc1nc2ccccn2c1/C(O)=C1\C(=O)C(=O)N(CCN2CCOCC2)C1c1cccs1 (stereo unspecified)	7	·	·	i	0.91	-2.0	99
CCOC(=O)c1c(N)sc(C(O)(C(F)(F)F)C(F)(F)F)c1-c1ccc(Cl)cc1	-4	29	72	i	1	0.4	113
Cc1ccc(NC(=O)C(=O)NCCN2CCN(S(C)(=O)=O)CC2)cc1C	4	·	·	i	0.91	·	101
COc1ccc(C(=O)Nc2nnc(-c3ccco3)s2)cc1	-4	·	·	i	0.77	-3.1	111
Cc1cccc(Cc2c(C)[nH]c(=O)c(C#N)c2C)c1	6	-56	102	i	1.2	·	100
Cc1noc(C)c1S(=O)(=O)N(C)CC(=O)NCc1ccccc1	-14	·	·	i	0.86	-2.1	62
O=C(Oc1ccc(-c2ccccc2)cc1)N1CCCCC1	-5	-31	140	i	0.99	-1.7	101
CCN1CCN(C(c2cccs2)C(C)NC(=O)c2cccc(OC)c2OC)CC1 (stereo unspecified)	-8	·	·	i	1.1	-2.6	176
CCN(Cc1nc2ccccc2c(=O)[nH]1)Cc1cc(=O)oc2cc(C)c(C)cc12	1	-17	130	i	0.87	0.0	·
COc1ccc(CN2CCN(CCc3ccccc3)C(CCO)C2)cc1Cn1cncn1 (stereo unspecified)	3	·	·	i	1.1	·	134
Cc1cc(OCCN2CCOCC2)ccc1[N+](=O)[O-]	-9	·	·	i	1	-1.0	109
N/C(COc1ccc(C(=O)O)cc1)=N\O	-3	45	74	i	0.85	-1.2	101
CC(=O)c1ccc(NC(=O)C2CCCN(C(=O)c3ccc(Cl)cc3)C2)cc1 (stereo unspecified)	4	0	133	i	0.9	·	101
COc1ccccc1NC(=O)Cn1c2ccccc2c2nc3n(c(=O)c21)CCS3	5	24	144	i	0.91	·	74
O=C(CSc1n[nH]c(-c2ccco2)n1)N1c2ccccc2Sc2ccccc21	-2	·	·	i	0.79	-1.4	98
O=S(=O)(c1ccc(Cl)cc1)c1ccccn1	8	-15	80	i	1.2	-1.8	106
Cc1ccc2[nH]c(O)c(N=O)c2c1	·	·	·	i	0.81	·	101
COc1ccccc1N1CCN(Cc2ccc(OC)c3ccccc23)CC1	-8	-35	84	i	0.98	-1.1	144
COc1cc(S(=O)(=O)N2CCN(C(=O)c3ccccc3F)CC2)c(OC)cc1NC(C)=O	-3	3	46	i	1.1	-2.7	148
O=C1N/C(=N\N=C\c2ccccn2)SC1Cc1cccc(SC(F)F)c1 (stereo unspecified)	-2	0	118	i	0.77	-2.3	102
Cc1cccc2cc(CN(C(=O)c3cnccn3)C3CCCCC3)c(Cl)nc12	2	-82	66	i	1	-1.3	105
COc1cc2c(cc1OC)C(C)N(C(=O)c1ccc(Br)o1)CC2 (stereo unspecified)	4	6	75	i	0.91	-1.1	18
Cc1cccc2sc(NNC(=O)c3cc(-c4cccs4)nc4ccccc34)nc12	-6	-15	35	·	·	-1.4	101
Nc1n[nH]c(N)c1N=Nc1ccc(Cl)cc1Cl	6	50	99	i	0.78	-0.9	82
O=C(Cc1cccs1)NNC(=S)NCc1ccco1	-10	·	·	i	1	·	101
O=c1c2c(nc3cc(-c4ccccc4)[nH]n13)CCS2	-5	59	51	·	·	-3.4	108
COC(=O)c1ccc2c(=O)n(CCCCCC(=O)NC(C)C)c(=O)[nH]c2c1	-9	23	95	·	·	·	105
Cc1csc(SCC(=O)N(C)CC(=O)Nc2ccc(F)cc2)n1	6	·	·	i	1	·	100
O=C(c1ccco1)N(Cc1ccccc1)c1cccc([N+](=O)[O-])c1	5	-107	82	i	1	·	55
COC(=O)c1sc2ncccc2c1OCc1ccccc1Cl	-11	3	129	i	0.98	-2.9	102
O=C(COC(=O)c1ccc(=O)n(Cc2ccccc2)n1)Nc1ccc2c(c1)OCCO2	-8	·	·	i	0.9	-2.8	102
COc1ccc(NC(=O)CSc2nccn2-c2cccc(OC)c2)cc1	-8	·	·	i	1.1	0.1	80
CCN1CCc2c(C#N)c(N3CCOCC3)nc(NCCO)c2C1	11	17	66	i	1.2	-0.8	105
CN(C)CCCOc1cccc(Oc2ccccc2)c1	-3	50	97	i	0.89	-0.1	91
C=CCN(C(=O)CNC(=O)c1ccco1)C(C(=O)NC1CCCC1)c1cccs1 (stereo unspecified)	0	·	·	i	0.92	·	113
CCOC(=O)c1nc(S(C)(=O)=O)ncc1N1CCOCC1	6	-33	62	i	0.92	-2.1	97
Cc1ccc(-n2c(CC#N)n[nH]c2=S)c(C)c1	·	·	·	i	1	·	85
